# LANA-H2B inh – blocks KSHV LANA binding to histone H2A/H2B. Q9QR71. cell-free LANA-H2A/H2B peptide, fluorescence polarization. inhibition, % (no concentration beside the values). 0.6% of 320,000 active; in the data active = inhibition mostly above about 10%, no sharp cut-off; inactive = mostly below about 6.7%;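 note: stock transfer was 7.5 nL into about 10 µL; 0% = median of vehicle wells and 100% = median of positive control wells; one replicate is shown; the record names a cut of 25% in any replicate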
# Calb FLC – C. albicans growth modulation with fluconazole; C. albicans CaCi-2 (fluconazole-resistant clinical isolate) + fluconazole, Alamar Blue growth, 48 h; growth inhibition, % (test concentration not listed); 0.57% of 300,000 active;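 active = most replicates above 75%; inconclusive = exactly half above 75%; inactive = most below 75%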;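 note: all wells also contain fluconazole at 8 µg/ml as a sub-toxic cotreatment; 0% = median of DMSO wells and 100% = median of geldanamycin control wells; wells of about 8 µL received 7.5 nL stock; the first replicate is given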
# Bfl-1 A1 inh – inhibitors of the anti-apoptotic protein A1, read as caspase activation; caspase activation, % (concentration not given with the values); MEF A1-2A-BIM cells, Caspase-Glo 3/7 luminescence, 3 h; percent of clofoctol response, vehicle zero; 0.066% of 330,000 active; AID 2462;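 active = over half of replicate activation scores above 10%, or exactly half above 10 with the replicate mean above 10; inconclusive = replicate mean below 10 yet half the replicates above 10; inactive = over half of replicates below 10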;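 note: wells of about 30 µL received 50 nL stock; many hits fall short of the cut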
# Beta cell apopt – blocks beta cell apoptosis; INS-1E cytokine-induced death, ATP luminescence, 48 h; percent of positive-control rescue, neutral wells zero; protection from apoptosis, % (concentration not given with the values); 0.8% of 300,000 active; AID 435005;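 active = all replicates at 75% or more, or half of them and the mean; inconclusive = half reach 75% but not the mean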;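 note: 0% = cytokine-treated negative control wells and 100% = positive control rescue; higher means more ATP so stronger rescue from cytokine killing; wells of about 40 µL received 100 nL stock; the first replicate is given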
# MLL AF4-AF9 inh – MLL-AF4/AF9 protein interaction inhibition; 0.47% of 350,000 active; P42568; inhibition, % at 10 µM; AlphaScreen, biotin-AF4 peptide binding to FLAG-AF9;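 active = every replicate reaching a set inhibition limit, whatever the replicate mean, cut at about 25% in these data; inconclusive = mean inhibition reaches that limit but some replicates miss it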;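 note: 0% = plate neutral control median and 100% = total signal loss; the record names both 10 and 1 µM as test concentration; the first replicate is given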
# Target sequence (P42568 whole entry, looked up): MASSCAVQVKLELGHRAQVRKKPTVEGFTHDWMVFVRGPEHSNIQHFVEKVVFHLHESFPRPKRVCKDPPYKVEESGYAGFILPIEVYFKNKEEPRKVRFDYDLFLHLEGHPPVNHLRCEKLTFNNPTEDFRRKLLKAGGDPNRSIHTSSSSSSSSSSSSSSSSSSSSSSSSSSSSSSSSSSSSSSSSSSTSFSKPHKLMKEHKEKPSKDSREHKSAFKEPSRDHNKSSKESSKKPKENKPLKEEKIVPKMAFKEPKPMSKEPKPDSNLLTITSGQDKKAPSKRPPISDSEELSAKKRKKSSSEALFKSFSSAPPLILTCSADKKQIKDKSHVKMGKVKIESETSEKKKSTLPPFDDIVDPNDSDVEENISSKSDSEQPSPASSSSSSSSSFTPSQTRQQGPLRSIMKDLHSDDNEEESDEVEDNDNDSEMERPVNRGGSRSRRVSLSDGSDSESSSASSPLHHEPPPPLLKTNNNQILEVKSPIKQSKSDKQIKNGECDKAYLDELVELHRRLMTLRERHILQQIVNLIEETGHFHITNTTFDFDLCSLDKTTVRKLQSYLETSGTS
# RanGTP-Imp inh – inhibitors of RanGTP-importin-beta interaction, primary screen, biochemical, FRET, CFP-Ran, YFP-importin-beta, homogeneous | AID 2216 | cell-free CFP-Ran/YFP-importin-beta FRET ratio | 1.1% of 300,000 active | inhibition, % (test concentration not listed);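 active = most replicates above 15%; inconclusive = exactly half above 15%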;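 note: 0% = DMSO wells and 100% = Ran loaded with GDP instead of GTP; wells of about 40 µL received 100 nL stock; the first replicate is given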
# T cruzi inh – blocks replication of Trypanosoma cruzi; 1.4% of 300,000 active; T. cruzi beta-gal in NIH3T3, luminescence, 90 h; AID 1885; inhibition, % (concentration not given with the values);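 active = mean inhibition across valid replicates above about 55%, limit read from the data; inconclusive = mean below that limit but half or more replicates reach it; inactive = mean below it, under half of replicates reach it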;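 note: signal also drops with host cell toxicity which is not excluded here; 0% = plate median of DMSO wells and 100% = zero luminescence signal; higher percent means less beta-gal luminescence so fewer parasites; stock transfer was 50 nL into about 50 µL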
# Vif A3G – inhibitors of Vif binding to APOBEC3G peptide, primary screen, biochemical, TR-FRET, GST-Vif 1-94, biotin-A3G peptide, dose response retest (AID 1117319) | 0.57% of 260,000 active | TR-FRET GST-Vif / biotin-A3G peptide binding; higher % means a stronger effect; test concentration not given here; strong numbers were not always called active | inhibition, %, or IC50 in µM where a hit was titrated;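 active = above the screen mean plus three standard deviations and confirmed in dose response; inconclusive = results disagree or hit not tested in dose response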;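 note: Vif residues 1-94 fused to GST binding biotinylated APOBEC3G peptide 110-148; 0% = full assay without inhibitor and 100% = GST in place of GST-Vif; retest series ran down from 100 µM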
# Active calls of the source: *; ? = inconclusive; · = not tested or not shown. Outcome played no part in choosing rows (roughly 4.3% active in at least one column).
SMILES,LANA-H2B inh,Calb FLC,Bfl-1 A1 inh,Beta cell apopt,MLL AF4-AF9 inh,RanGTP-Imp inh,T cruzi inh,Vif A3G
Cc1ccc(S(=O)(=O)CCc2nnc(N)s2)cc1,-0.5,-19,-0.2,1,·,-2.2,-20,25%
Cc1ccc(N=C2NC(=O)/C(=C/C=C/c3ccco3)S2)cc1C,-3.1,4,-1.3,-6,·,?,-28,·
O=C(CN1CCCC1)Nc1cc(F)ccc1F,-3.8,-7,0.4,3,-0.6,?,-5,6%
Cc1ccc(S(=O)(=O)N2CCCC(C(=O)NCCC(C)C)C2)cc1 (stereo not given),1.1,6,-0.3,1,-0.8,2.0,1,-1%
Cc1ccccc1OCC(=O)NCCN1CCCC1,-0.8,·,-0.1,-7,·,·,·,-13%
O=C(O)c1ccc(S(=O)(=O)N2CCCc3ccccc32)cc1,0.8,20,1.4,3,-1.2,?,5,3%
CCOc1ccccc1Nc1nc(-c2sc(NC(=O)c3cccc(Cl)c3)nc2C)cs1,4.0,-8,-0.2,12,-8.5,-0.2,-1,16%
CC(NC(=O)c1cccc(Br)c1)c1ccccc1 (stereo not given),0.9,2,0.4,0,-1.6,11,-2,8%
CCC(C)NS(=O)(=O)c1ccc(OCC(=O)Nc2ccc3c(c2)OCO3)cc1 (stereo not given),-4.1,4,-0.5,·,·,-0.7,1,3%
COc1ccc(S(=O)(=O)N2CCC(C(=O)N3CCCCC3)CC2)cc1Cl,5.7,-1,-0.6,-3,·,1.9,-1,-8%
C/C(CCS(=O)(=O)c1ccccc1)=N/O,6.5,37,-0.3,-4,1.0,1.9,-8,·
COc1ccc(C(=O)Nc2ccccc2C(=O)Nc2ccccn2)cc1,7.6,-18,-5.4,9,0.6,-1.4,-2,-6%
COc1ccc(S(=O)(=O)N2CCCCCC2)cc1C(=O)NCc1cccs1,5.1,·,0.1,-6,-0.7,·,·,-8%
O=C(CCN1C(=O)C2C3C=CC(C4CC34)C2C1=O)OCC(=O)c1ccccc1 (stereo not given),1.7,6,-0.5,-4,-0.9,1.7,9,0%
O=S(Cc1ccc(Cl)cc1)c1ncc(CO)n1Cc1ccccc1 (stereo not given),2.6,11,-0.1,-1,-1.3,3.1,-8,-5%
CCC(C(=O)N1CCC(N2CCCCC2)CC1)n1nc(C)c2sc3ccccc3c2c1=O (stereo not given),-8.2,3,0.3,1,-0.6,-1.9,-19,1%
CC1CC(C)CN(S(=O)(=O)c2ccc(C(=O)N(c3ccccn3)C3CCCCC3)cc2)C1 (stereo not given),-4.2,6,-1.1,6,-0.9,3.7,-4,1%
COc1ccccc1CNC(=O)c1cc2c(=O)[nH]c3ccccc3c2n1C,-0.1,5,0.2,-6,-0.7,-9.7,32,-4%
Cc1ccc(S(=O)(=O)c2c(N)n(/N=C/c3ccco3)c3nc4ccccc4nc23)cc1C,-2.5,-10,-0.1,8,·,0.3,46,?
CC1=NCC(C)c2c1[nH]c1ccccc21 (stereo not given),-0.1,-8,-0.2,8,·,0.8,-4,26%
COc1ccc(C(=O)O/N=C(\N)c2cccc(C)c2)cc1OC,0.4,-5,-1.6,6,-3.2,-3.2,16,-7%
NC(=S)NN=C1c2cc(S(=O)(=O)N3CCOCC3)ccc2-c2ccc(S(=O)(=O)N3CCOCC3)cc21,-0.2,-6,-0.4,18,·,1.0,17,7%
Cc1cccc(OCC(O)Cn2c(-n3nc(C)cc3C)nc3c2c(=O)[nH]c(=O)n3C)c1 (stereo not given),-0.8,7,0.0,0,·,4.3,17,2%
COc1ccc(CNC(=O)C2CCC(CNc3c(N4CCCCC4)c(=O)c3=O)CC2)cc1 (stereo not given),-1.6,-10,0.8,-1,8.2,-0.5,5,?
CCN(CC)CCNC(=O)NC(=O)c1ccc(Cl)cc1,-4.6,12,0.3,7,2.8,-0.4,-16,4%
Cc1ccc(N2CCN(S(=O)(=O)c3ccc(F)cc3)CC2)c(C)c1,0.7,16,-0.5,1,-4.9,0.9,17,21%
CC1C=CCC2C(=O)N(c3cccc(C(=O)Nc4ccc(F)cc4)c3)C(=O)C12 (stereo not given),1.7,-2,-0.6,-1,0.4,-4.3,-2,·
c1ccc(-c2ncc(-c3ccn[nH]3)s2)cc1,3.1,?,-0.1,-3,0.1,1.3,-51,-7%
CCC(/C=C1\Sc2ccc(OC)cc2N1CCO)=C\c1sc2ccc(OC)cc2[n+]1CCO,-1.1,·,-1.8,43,22,·,·,·
COc1ccc(N2CCN(C(=O)c3cc4ccccc4o3)CC2)cc1,6.3,13,-1.4,-9,1.5,5.7,14,·
COc1cc(OC)cc(C(=O)NC2CCN(CC(=O)Nc3cccc4ccccc34)CC2)c1,1.7,-3,-0.2,-3,·,0.8,2,7%
O=C(NCc1ccccc1Cl)c1ccc2ccccc2n1,0.1,-10,1.0,-29,-5.7,-0.3,0,1%
COc1ccc(-c2nnc(SCc3ccccc3F)o2)cc1OC,-6.9,2,-1.0,-8,·,0.9,0,-8%
O=[N+]([O-])c1cccc(S(=O)(=O)N2CCCCC2c2cccnc2)c1 (stereo not given),-0.5,-7,-0.3,3,6.6,3.9,21,·
COC(=O)c1[nH]c2cccc(OC)c2c1NC(=O)CCN1CCN(c2ccccc2F)CC1,·,-2,·,·,·,3.8,7,-1%
OC(CNC1CCCc2ccccc21)COc1ccc2ccccc2c1 (stereo not given),3.1,-18,0.0,-10,-5.2,1.6,37,12%
O=C(Cc1ccccc1)c1c[nH]c(C(=O)NCc2ccncc2)c1,1.1,32,-0.2,·,0.4,4.0,-19,13%
COc1cc(/C=N/NC(=O)c2ccc(O)cc2)ccc1Oc1ccc([N+](=O)[O-])cn1,4.8,-2,1.2,7,4.7,-4.3,3,·
CCOc1ccc(NS(=O)(=O)c2ccc3c(c2)N(C(C)=O)CC3)cc1,-2.7,7,0.4,16,-1.9,0.1,-27,0%
CC(C)NS(=O)(=O)c1ccc(OCC(=O)NCC2CCCO2)c(Cl)c1 (stereo not given),-0.6,-9,-0.1,-2,6.0,0.5,-2,1%

# The final 2 entries of the section above are carried over, then new ones follow:
SMILES,LANA-H2B inh,Calb FLC,Bfl-1 A1 inh,Beta cell apopt,MLL AF4-AF9 inh,RanGTP-Imp inh,T cruzi inh,Vif A3G
CCOc1ccc(NS(=O)(=O)c2ccc3c(c2)N(C(C)=O)CC3)cc1,-2.7,7,0.4,16,-1.9,0.1,-27,0%
CC(C)NS(=O)(=O)c1ccc(OCC(=O)NCC2CCCO2)c(Cl)c1 (stereo not given),-0.6,-9,-0.1,-2,6.0,0.5,-2,1%
C/C(=N/NC(=O)c1ccc(Br)o1)c1ccc(C)o1,1.7,-9,-1.4,-2,-3.2,2.7,-5,18%
Cc1ccc(OCCCC(=O)Nc2ccc(S(=O)(=O)Nc3cc(C)on3)cc2)cc1,-2.3,-12,-0.8,-4,·,0.0,6,?
CS(=O)(=O)c1ccc2nc(NC(=O)c3ccccc3Br)sc2c1,14,12,-2.6,3,-3.1,-4.3,-6,-4%
O=C(NC1CCOc2ccccc21)c1ccc(Cl)nc1 (stereo not given),-6.8,-8,0.0,0,-6.5,7.2,3,2%
COc1ccc(CNC(=O)CSc2nnc(C3CC3)n2C2CC2)cc1,0.8,·,-0.4,-2,-15,·,·,·
COc1ccc(N2C(=O)C3ON(C4SC(=S)N(C)C4(C)C)C(c4ccc(Cl)cc4)C3C2=O)cc1 (stereo not given),-6.0,-5,-0.2,-7,·,-0.9,4,·
CCOc1ccc(S(=O)(=O)NCCC(=O)N(C)CC(=O)Nc2ccc(N3CCOCC3)cc2)cc1,-1.3,-1,-0.1,-9,0.2,1.6,-6,·
N=c1c(-c2nc3ccccc3[nH]2)cc(C(=O)c2cccs2)nn1-c1ccccc1,-0.6,-3,1.9,-6,·,4.5,72*,-7%
O=C(O)CCC(=O)N1N=C(c2ccco2)CC1c1cccs1 (stereo not given),0.5,-22,-0.4,-6,-5.2,5.7,-5,·
Cc1ccc(S(=O)(=O)N2CCCCC2)cc1NC(=O)Cn1ncc(Cl)c(Cl)c1=O,-4.4,·,0.0,-20,-5.5,·,·,·
COc1cc(/C=C/C(=O)Nc2ccc(C(C)=O)cc2)cc(OC)c1OC,-1.2,-9,0.3,·,6.3,-2.3,-13,·
CCOC(=O)c1c(-c2ccccc2)csc1NC(=S)N(CC)CC,·,-14,·,·,-5.9,-0.3,23,1%
COc1cccc(Nc2nc(=O)[nH]nc2C)c1,3.2,-3,0.1,-1,·,-1.7,-17,0%
COc1ccc(N2CCC(CNC(=O)Nc3ccc(OC)cc3OC)C2)cc1 (stereo not given),3.0,11,0.0,-1,·,3.8,-12,17%
Cc1ccc(-n2nc3c(c2NC(=O)c2ccc(F)c(F)c2)CS(=O)(=O)C3)cc1,109*,6,0.3,4,-2.9,-0.6,-1,1%
COc1ccc(CNC(=O)CN2CCN(S(=O)(=O)c3ccccc3)CC2)cc1,-4.1,·,0.3,-2,-2.1,·,·,-10%
COCCn1c(-c2cc(OC)c(OC)c(OC)c2)nc2oc3ccccc3c(=O)c2c1=O,-0.2,-17,-0.3,18,·,-0.3,0,·
COc1ccc(C)cc1NC(=O)COC(C)=O,5.7,6,0.3,-4,·,6.9,-3,-5%
NC1=NC(c2ccc(Cl)cc2)N(c2ccc(S(N)(=O)=O)cc2)C(N)=N1 (stereo not given),3.7,-11,0.2,-5,-1.3,0.8,-6,-3%
CCC(O)(C#CCN1CCCCC1)CC,-2.6,-3,-0.4,1,-1.1,-1.8,-10,8%
COC(=O)c1ccc(N2CCN(C)CC2)c(NC(=O)COc2cccc(C)c2)c1,3.3,5,0.4,-16,0.7,3.1,8,10%
CC(=O)Oc1ccccc1C(=O)Oc1ccccc1C(=O)O,1.2,·,?,-5,0.1,·,·,·
COc1ccc(N(CC(=O)N/N=C/c2ccco2)S(=O)(=O)c2ccccc2)cc1Cl,-5.1,-16,0.1,-1,-2.2,-5.8,-12,-9%
Cc1ccn(S(=O)(=O)c2ccc3oc(=O)ccc3c2)n1,-0.9,1,0.0,·,-2.4,0.7,-4,·
CCN1CCN(S(=O)(=O)c2ccc(S(=O)(=O)NC3CC3)cc2)CC1,-3.6,-1,-1.0,-8,-2.4,1.2,6,-1%
CCOC(=O)C1CCCN(C(=O)c2ccccc2[N+](=O)[O-])C1 (stereo not given),7.7,5,0.0,-6,0.4,1.6,5,1%
COc1ccc(C)cc1NC(=O)CCS(=O)(=O)c1cc2c(cc1Cl)NC(=O)CO2,-2.9,-2,-1.8,·,-5.3,0.1,10,5%
COc1ccc(CNCC(=O)Nc2cc(C)nn2-c2nc(C)cc(C)n2)cc1OC,2.8,9,0.2,-3,1.8,-4.9,3,·
COc1cccc(-c2cc(C(=O)N3CCOCC3)no2)c1,2.4,14,-0.2,3,-0.2,0.7,-5,·
CN(CC(=O)Nc1ccccc1Br)C(=O)CCC1CCCC1,-9.0,-23,0.3,5,-2.3,-1.5,-13,·
COc1ccccc1N1CCN(S(=O)(=O)c2ccc3c(c2)NC(=O)C(C)S3)CC1 (stereo not given),0.0,16,0.4,1,4.6,-3.8,5,·
COc1ccc(OCC(N)=O)cc1,1.0,-24,-0.2,0,-0.5,3.3,-9,2%

# Bioassay records: PubChem BioAssay, several laboratories
